Bfl-1 A1 inh – inhibitors of the anti-apoptotic protein A1, read as caspase activation; MEF A1-2A-BIM cells, Caspase-Glo 3/7 luminescence, 3 h; percent of clofoctol response, vehicle zero; caspase activation, % (no concentration beside the values); 0.066% of 330,000 active;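 active means over half of replicate activation scores above 10%, or exactly half above 10 with the replicate mean above 10; inconclusive means replicate mean below 10 yet half the replicates above 10; inactive means over half of replicates below 10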;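 further: wells of about 30 µL received 50 nL stock; many hits fall short of the cut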
Vif A3G – inhibitors of Vif binding to APOBEC3G peptide, primary screen, biochemical, TR-FRET, GST-Vif 1-94, biotin-A3G peptide, dose response retest (AID 1117319); inhibition, %; hits with a dose series show IC50 in µM; TR-FRET GST-Vif / biotin-A3G peptide binding; higher % means a stronger effect; test concentration not given here; strong numbers were not always called active; 0.57% of 260,000 active;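 active means above the screen mean plus three standard deviations and confirmed in dose response; inconclusive means results disagree or hit not tested in dose response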;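 further: Vif residues 1-94 fused to GST binding biotinylated APOBEC3G peptide 110-148; 0% = full assay without inhibitor and 100% = GST in place of GST-Vif; retest series ran down from 100 µM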
AF4-AF9 inh – MLL-AF4/AF9 protein interaction inhibition; AlphaScreen, biotin-AF4 peptide binding to FLAG-AF9; inhibition, % at 10 µM; 0.47% of 350,000 active;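 active means every replicate reaching a set inhibition limit, whatever the replicate mean, cut at about 25% in these data; inconclusive means mean inhibition reaches that limit but some replicates miss it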;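 further: 0% = plate neutral control median and 100% = total signal loss; the record names both 10 and 1 µM as test concentration; the first replicate is given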
Target sequence (P42568 whole entry, looked up): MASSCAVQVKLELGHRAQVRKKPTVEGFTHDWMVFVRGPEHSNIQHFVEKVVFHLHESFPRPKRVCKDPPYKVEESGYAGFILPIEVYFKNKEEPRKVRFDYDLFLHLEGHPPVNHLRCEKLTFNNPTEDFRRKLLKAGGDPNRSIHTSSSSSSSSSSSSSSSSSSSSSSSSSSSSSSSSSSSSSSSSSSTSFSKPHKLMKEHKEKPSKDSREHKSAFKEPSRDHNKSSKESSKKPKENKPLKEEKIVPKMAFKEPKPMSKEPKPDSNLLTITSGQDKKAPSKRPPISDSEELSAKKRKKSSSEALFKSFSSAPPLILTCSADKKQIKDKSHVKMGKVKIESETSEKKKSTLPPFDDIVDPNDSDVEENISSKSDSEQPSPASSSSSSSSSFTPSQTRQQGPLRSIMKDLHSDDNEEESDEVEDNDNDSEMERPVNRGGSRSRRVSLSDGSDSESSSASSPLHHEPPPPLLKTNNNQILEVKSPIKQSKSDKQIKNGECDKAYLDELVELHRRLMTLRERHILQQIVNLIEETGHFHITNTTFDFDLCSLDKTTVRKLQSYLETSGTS
Calb FLC – C. albicans growth modulation with fluconazole | growth inhibition, % (test concentration not listed) | 0.57% of 300,000 active | AID 1979 | C. albicans CaCi-2 (fluconazole-resistant clinical isolate) + fluconazole, Alamar Blue growth, 48 h;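 active means most replicates above 75%; inconclusive means exactly half above 75%; inactive means most below 75%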;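 further: all wells also contain fluconazole at 8 µg/ml as a sub-toxic cotreatment; 0% = median of DMSO wells and 100% = median of geldanamycin control wells; wells of about 8 µL received 7.5 nL stock; the first replicate is given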
LANA-H2B inh – blocks KSHV LANA binding to histone H2A/H2B; Q9QR71; cell-free LANA-H2A/H2B peptide, fluorescence polarization; inhibition, % (concentration not given with the values); 0.6% of 320,000 active; AID 2629; in the data active means inhibition mostly above about 10%, no sharp cut-off; inactive means mostly below about 6.7%;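 further: stock transfer was 7.5 nL into about 10 µL; 0% = median of vehicle wells and 100% = median of positive control wells; one replicate is shown; the record names a cut of 25% in any replicate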
T cruzi inh – blocks replication of Trypanosoma cruzi. T. cruzi beta-gal in NIH3T3, luminescence, 90 h. inhibition, % (no concentration beside the values). 1.4% of 300,000 active. AID 1885;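 active means mean inhibition across valid replicates above about 55%, limit read from the data; inconclusive means mean below that limit but half or more replicates reach it; inactive means mean below it, under half of replicates reach it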;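 further: signal also drops with host cell toxicity which is not excluded here; 0% = plate median of DMSO wells and 100% = zero luminescence signal; higher percent means less beta-gal luminescence so fewer parasites; stock transfer was 50 nL into about 50 µL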
Beta cell apopt – beta cell apoptosis inhibition | INS-1E cytokine-induced death, ATP luminescence, 48 h; percent of positive-control rescue, neutral wells zero | AID 435005 | 0.8% of 300,000 active | protection from apoptosis, % (test concentration not listed);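 active means all replicates at 75% or more, or half of them and the mean; inconclusive means half reach 75% but not the mean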;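 further: 0% = cytokine-treated negative control wells and 100% = positive control rescue; higher means more ATP so stronger rescue from cytokine killing; wells of about 40 µL received 100 nL stock; the first replicate is given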
RanGTP-Impb inh – inhibitors of RanGTP-importin-beta interaction, primary screen, biochemical, FRET, CFP-Ran, YFP-importin-beta, homogeneous | AID 2216 | cell-free CFP-Ran/YFP-importin-beta FRET ratio | inhibition, % (test concentration not listed) | 1.1% of 300,000 active;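 active means most replicates above 15%; inconclusive means exactly half above 15%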;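 further: 0% = DMSO wells and 100% = Ran loaded with GDP instead of GTP; wells of about 40 µL received 100 nL stock; the first replicate is given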
* = called active by the depositor; i = inactive; ? = inconclusive; . = not tested or not shown; & = joins results of further samples.

Molecule,Bfl-1 A1 inh,Vif A3G,AF4-AF9 inh,Calb FLC,LANA-H2B inh,T cruzi inh,Beta cell apopt,RanGTP-Impb inh
COc1ccc(-n2ncc3c(=O)n(CC(=O)N4c5ccccc5CC4C)cnc32)cc1 (stereo not given),0.1,4%,.,-5,6.9,9,7,?
CCN1C(=O)c2cccc3c(S(=O)(=O)N(C(=O)c4ccncc4)c4ccc(OC)cc4)ccc1c23,0.3,-14%,-2.8,12,-2.5,-31,-8,6.5
Cc1ccc(NC(=S)N(CCCN2CCOCC2)Cc2cccnc2)cc1C,0.3,4%,-3.0,-15,-6.2,68*,-9,5.9
O=C(Nc1nc(-c2cccs2)cs1)C1=COCCO1,-13,6%,-5.5,-12,-0.5,-7,-1,-1.9
N#Cc1ccsc1NC(=O)c1cccc([N+](=O)[O-])c1,-4.1,-10%,-0.8,32,0.0,-12,17,-2.4
Cc1ccc(-n2c(O)cnc2Nc2nc(C)cc(C)n2)cc1,-0.3,-1%,.,1,-6.7,3,1,-2.9
CCOc1ccc(S(=O)(=O)N2CCCC(C(=O)NCc3cccnc3)C2)cc1C (stereo not given),-0.5,.,-1.8,-5,0.7,4,-4,5.5
CCN(C(=O)Cn1nnc(-c2ccccc2)n1)C1CCS(=O)(=O)C1 (stereo not given),0.6,4%,-14,-1,-1.1,-6,-1,0.3
Nc1cccc(C(=O)Nc2cccc3ncccc23)c1,1.7,.,0.9,-9,-2.0,-3,-3,2.4
CS(=O)(=O)Nc1ccccc1C(=O)NCCSc1ccc(Cl)cc1,0.1,.,4.5,20,-1.7,-10,0,-3.8
O=C(O)/C=C/c1ccc2ccccc2n1,-0.5,0%,.,5,-5.4,5,-7,0.0
O=c1cc(CSc2nnc(COc3ccc(Cl)cc3)o2)c2ccccc2[nH]1,-0.7,-22%,.,-3,7.4,26,4,-2.4
Cc1cc(C)nc(N/N=C/c2ccc([N+](=O)[O-])o2)n1,0.3,-2%,0.9,11,-3.2,27,-3,-1.5
CCCN1C2=NCCN2c2cc(C)c(C)cc21,-0.1,1%,.,4,0.4,.,.,.
COc1ccccc1CNC(=O)c1ccccc1NC(=O)C1=C(C)OCCS1,1.2,7%,7.8,34,-0.8,3,-3,-5.0
Brc1ccc(OCc2nnc(SCC3CCCCC3)o2)cc1,0.1,.,-1.6,21,-7.8,14,-1,3.4
O=C(COC(=O)C1CCN(S(=O)(=O)c2cc([N+](=O)[O-])ccc2Cl)CC1)Nc1ncc(Cl)cc1Cl,0.8,10%,.,-7,-2.8,5,-2,0.1
Cc1c(=O)n(OCc2ccc(Cl)cc2)c2ccccc2[n+]1[O-],1.0,31%,-0.7,2,-1.2,-15,-1,-1.8
Cc1ccc(NC(=S)NNC(=O)c2c([N+](=O)[O-])c(C)nn2C)cc1,0.4,5%,.,1,0.9,-4,2,0.3
Cc1sccc1/C=N/NC(=O)c1cccc2ccccc12,-0.1,17%,.,2,7.4,4,2,2.8
Nn1cnnc1SC1CCCCC1NS(=O)(=O)c1ccccc1 (stereo not given),1.0,6%,.,13,8.5,6,-5,2.4
Cc1ccc(OCCCC(=O)N(C)CC(=O)Nc2ccccc2Cl)cc1,0.5,8%,3.3,-6,-2.1,0,0,.
Cc1ccc(S(=O)(=O)N2CC(O)CC2C(=O)O)cc1 (stereo not given),0.8,5%,-3.3,25,-1.0,-15,-1,-0.6
COc1ccc(CCC(=O)NNC(=O)Nc2cccc(Cl)c2)cc1,-0.5,.,1.0,5,3.8,-26,-4,-2.7
CCCCn1c(=O)[nH]c(=O)c2c1nc(-c1ccc(-c3ccccc3Br)o1)n2CC,-0.1,0%,.,104*,1.0,3,5,-2.3
O=C(CCl)NCCCCCCCCCNC(=O)CCl,1.0,-5%,-1.0,19,3.7,33,10,2.8
Cc1nc(NCc2ccco2)c2c3c(sc2n1)CCC3,0.3,18%,.,10,0.4,-19,-20,1.1
Cc1cccc(-n2ncc3c(=O)[nH]c(SCC(=O)N4CC(=O)Nc5ccccc54)nc32)c1,-0.6,-11%,-1.6,.,4.5,.,3,.
CCOC(=O)C1CCCN(S(=O)(=O)c2ccc(OC)c3ccccc23)C1 (stereo not given),-0.3,5%,.,10,1.7,-6,4,-0.1
O=C(Nc1cc(=O)c2ccccc2o1)N1CCOCC1,1.6,-2%,.,18,3.2,31,-5,.
O=C(CN1CCN(S(=O)(=O)c2ccccc2)CC1)Nc1cccc(C(F)(F)F)c1,-0.9,-1%,.,19,-4.9,-6,2,-1.0
Cc1ccccc1OC(=O)n1c(=S)oc2cc(Cl)ccc21,?,-1%,.,45,4.4,-3,.,0.1
COc1ccc(CN2CCN(S(=O)(=O)c3ccccc3)CC2)c(OC)c1,-0.7,9%,.,-28,-2.7,-6,-4,-1.1
CCN(CC)C(=O)CSc1nc(COc2ccccc2)nc2ccccc12,-0.8,7%,-2.4,1,-6.5,8,.,-3.5
CCCCOc1cccc(OCC(=O)Nc2nc3ccccc3[nH]2)c1,0.1,32%,.,-4,3.9,-7,6,-0.3
CCCc1cc(=O)n2[nH]c(-c3ccc(Br)cc3)cc2n1,0.3,9%,.,-7,-3.3,10,-8,-0.7
O=C1NC(Cc2ccccc2)c2nc3cc(Cl)ccc3c(=O)n2-c2cc(Cl)ccc21 (stereo not given),-0.7,.,1.3,.,3.7,.,5,.
Cc1cccc(CN2CCSc3sccc3C2=O)c1,0.4,?,-11,0,0.5,-10,-17,-0.9
CN(Cc1ccccc1)C(=O)CN1C(=O)COc2ccc(S(=O)(=O)N3CCCC3)cc21,-0.4,4%,-1.7,5,0.3,-18,3,2.8
COc1cc(/C=C\C(=O)NCc2ccc3c(c2)cc(C)n3C)cc(OC)c1OC,.,-16%,0.6,-7,-3.8,24,-4,?
COc1cccc(-c2cn(C[C@H]3CC[C@@H]([C@@H]4CC[C@H](Cn5cc(-c6cccc(OC)c6)nn5)O4)O3)nn2)c1,1.7,.,-0.5,16,0.6,12,5,2.6
C=C(C)C(=O)Nc1cccc(C2=NOC3(C2)C[C@H](C(N)=O)N(C(=O)COc2ccc(Cl)cc2)C3)c1 (stereo not given in full),0.3,1.3µM*,-19,-3,-1.5,-17,1,-2.5
CCn1c(-c2cc(-c3ccc(OC(C)C)cc3)nc3ccccc23)n[nH]c1=S,0.1,-2%,3.8,-4,6.7,15,5,2.5
Cc1nnc(SCC(=O)Nc2ccc3c(c2)OCO3)n(N)c1=O,1.6,1%,-1.4,18,0.2,-5,-2,-4.9
Nc1ncc2c(n1)-c1cc(Cl)ccc1SC2,-0.6,-1%,-2.2,15,1.9,72*,-6,3.2
COc1ccc2cc(OCC(=O)NNC(=O)Nc3ccc(F)cc3)ccc2c1,-0.6,.,-5.9,29,0.2,-2,0,7.9
Cc1cccc(Cn2c(C(C)O)nc3ccccc32)c1 (stereo not given),-0.2,-3%,.,-10,-1.4,-7,.,2.3
CCC(=O)N1CCc2cc(S(=O)(=O)NCCC(=O)N3CCN(Cc4ccccc4)CC3)ccc21,-0.3,7%&5%,.,-23,3.7,0,-1,2.5
COc1cc2ncnc(NCc3ccccc3)c2cc1OC,2.0,19%,.,1,-3.1,12,-17,-0.3
S=c1nc(-c2ccccc2)[nH]c2ccc(Br)cc12,-0.9,.,0.4,.,0.1,-2,8,6.2
C(=C\c1ccc2ccccc2n1)/c1ccccc1,-8.0,11%,?,-4,1.1,-18,13,-0.5
Cc1noc(/C=C/N(C)C)c1S(=O)(=O)N1CCN(c2ccccc2)CC1,.,11%,0.1,-4,-3.9,0,-3,-2.0
Cc1ccccc1N=C1NC(=O)/C(=C/c2cccn2C)S1,0.0,6%,6.2,0,-1.1,13,4,8.3
Cc1ccc(CNC(=O)c2ccc(Cn3nc(C)cc3C)o2)cc1,-0.2,.,-2.3,-5,0.0,-9,1,5.0
CCN1C(=O)[C@H]2[C@@H](c3ccc(SC4CCCCC4)c(OC)c3)N3CCCC[C@@]3(C(=O)OC)[C@H]2C1=O,-1.2,.,2.7,30,3.9,35,6,-0.8
CCCc1ccc(S(=O)(=O)NCc2nnc(SC)n2C)cc1,0.8,.,-3.4,-2,1.9,6,-2,-1.3

Continuation.
Molecule,Bfl-1 A1 inh,Vif A3G,AF4-AF9 inh,Calb FLC,LANA-H2B inh,T cruzi inh,Beta cell apopt,RanGTP-Impb inh
CC1CCN(S(=O)(=O)c2ccc(F)c(C(=O)O)c2)CC1,-0.5,1%,.,10,-4.6,-8,-6,7.2
COc1cc(/C=N/Nc2nnc3c(n2)[nH]c2ccccc23)ccc1O,-0.7,.,-2.2,6,.,-16,-1,3.2
Cc1c(Br)c(C(F)(F)F)nn1CC(=O)NCC1CCCO1 (stereo not given),0.4,2%,0.3,20,i,-5,-4,-0.8
Cc1csc(NC(=O)CSc2nc(C(C)C)nc3c2c(=O)n(C)c(=O)n3C)n1,.,2%,-4.5,0,-6.7,-27,11,-2.5
C=CCSC1=C(C#N)C(c2ccccc2Cl)C(C(=O)c2cccs2)C(O)(C(F)(F)F)N1 (stereo not given),0.1,.,9.1,-3,-2.0,-6,5,0.0
COc1cc(OC)c(NC(=O)c2cc(S(=O)(=O)N3CCOCC3)cn2C)cc1Cl,0.8,.,-6.4,-5,-1.3,2,-6,1.0
CCN1CCN(C(c2cccs2)C(C)NC(=O)c2ccccc2OC)CC1 (stereo not given),0.5,0%,-0.8,-2,-5.4,2,-2,7.6
CCN1CCN(S(=O)(=O)c2ccc3c(c2)OCCO3)CC1,0.0,1%,.,-19,6.5,4,-2,-2.8
COCc1cc(C)n(CC(=O)NCC2CCCO2)c(=O)c1C#N (stereo not given),-0.4,.,0.0,2,-6.3,-3,.,0.8
O=C(Nc1ccc(N2C(=O)C3C4C=CC(C4)C3C2=O)cc1Cl)c1cccs1 (stereo not given),-0.5,0%,1.1,-8,-0.4,-2,-2,-1.2
CN1CCN(C(=O)c2cc3sc4ccccc4c3s2)CC1,-5.8,-1%,.,4,2.9,50,-3,?
O=c1c2sccc2n(Cc2ccc(F)cc2)c(=O)n1-c1ccc(F)cc1,-0.4,.,.,26,6.9,13,-1,-1.2
O=S(=O)(Nc1nc(SCc2ccc(Cl)cc2)n[nH]1)c1ccccc1,0.1,.,.,1,-6.4,0,-10,3.6
O=C(c1ccco1)N1CCN(c2c([N+](=O)[O-])nn(-c3cccc(Cl)c3)[n+]2[O-])CC1,0.5,-12%,11,1,1.4,40,11,-1.6
OC(CNCc1ccccn1)c1ccccc1 (stereo not given),0.3,.,0.9,-2,3.6,-14,-7,-5.4
CN1CCN(CC(=O)NN(Cc2ccccc2)c2ccccc2)CC1,-1.5,14%,-0.1,-1,-6.3,15,-2,-2.7
Cn1cc(/C=C/C(=O)c2ccccc2)c2ccccc21,-6.4,0%,5.7,1,4.0,13,.,36*
Cc1nc2cc(-c3ccccc3)nn2c(C)c1CCC(=O)N1CCN(c2ccccc2)CC1,0.5,-3%,-0.1,-1,0.2,49,2,-3.3

Screening results as filed in PubChem BioAssay.
